# Bioassay records deposited in PubChem by several laboratories.
# Sa RN4220 lethal: S. aureus RN4220 growth inhibition; OD600, 16 h; inhibition, % (concentration not given with the values); 330,000 tested, 0.33% active;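 active = z-score of -3 or lower and OD600 up to 0.18 on both plates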;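 also: plate controls were untreated cells for no effect and reference antibiotic for full effect; stock transfer was 100 nL into about 80 µL; one replicate is shown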
# Sa ugtP lethal: compounds lethal to S. aureus RN4220 ugtP deletion mutant; AID 1259309; OD600 growth, 16 h; some inactives read as strong as hits; growth inhibition, % (concentration not given with the values); 330,000 tested, 0.54% active;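 active = z-score under -3 and OD600 up to 0.15 on both plates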;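 also: plate controls were untreated wells for no effect and antibiotic for full effect; wells of about 80 µL received 100 nL stock; the first replicate is given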
# Bead autofluor: counter-screen for toxin protease inhibitors: compound fluorescence. 360,000 tested, 3.1% active. AID 624483. compound autofluorescence counterscreen, microsphere flow cytometry; active compounds read high. fluorescence intensity (no concentration beside the values);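 active = at least 3 SD above the mean of all compounds, about 16000 in these data; inconclusive = too few beads counted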;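 also: 100 nL of 1 mM stock went into each well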
# PrP UTR inh: inhibition of PrP 5' UTR reporter expression; cell-based PrP 5' UTR mRNA reporter, plate reader; inhibition, % (test concentration not listed); 340,000 tested, 0.35% active; AID 488862;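 active = every replicate at 50% or more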;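 also: 0 = median of the neutral control wells; tested in H4 reporter cells; numbers are from one replicate; inactives centre near -14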
# Mtb hypoxia rep: reduces hypoxia-regulated biosensor signal in M. tuberculosis; 300,000 tested, 0.1% active; M. tuberculosis hypoxia-regulated fluorescent reporter, fluorescence; fluorescence inhibition, % (test concentration not listed);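 active = 35 to 45% if threefold the growth effect, above 45% if 1.5-fold the growth effect; inactive = the rest, general growth blockers included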;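 also: wells of about 50 µL received 100 nL stock; 0% = vehicle wells and 100% = reference inhibitor wells; whole bacteria with a GFP reporter of the hypoxia response; strong numbers were not always called active; many hits fall short of the cut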
# BJeLR lethal: BJeLR cell viability loss | BJeLR (HRASV12) viability, CellTiter-Glo ATP luminescence, 48 h; reference of the scale not given here | inhibition, % (no concentration beside the values) | 300,000 tested, 0.17% active;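 active = replicate mean above 50%; inconclusive = above 50% but judged a plate artefact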;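 also: 50 nL library stock added to about 25 µL; numbers are from one replicate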
# Mtb hypoxia rep growth: recorded beside Mtb hypoxia rep, whose call it bears; growth inhibition, %; measured here: M. tuberculosis growth (absorbance);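 0% = vehicle and 100% = reference antibiotic; read after six days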
# * = called active by the depositor; ? = inconclusive; nt = no result given; & = joins results of further samples. Compounds were not picked by outcome. Share with any hit: about 3.9%.
SMILES,Sa RN4220 lethal,Sa ugtP lethal,Bead autofluor,PrP UTR inh,Mtb hypoxia rep,Mtb hypoxia rep growth,BJeLR lethal
COC(=O)c1c[nH]n2c(=O)c(Cl)c(C)nc12,9.3,10,2520,-26,-2,-2,1
CO/N=C/c1ccc(Oc2ccc(C)cc2)nc1,nt,nt,2364,-14,nt,nt,3
COc1ccc(/C=C/C(=O)c2nc3ccccc3n2CC(=O)c2ccc(OC)cc2)cc1,-0.9,-17,9241,-6,-10,1,-15
CCOC(=O)c1ccc(NC(=O)Cn2ncc(Cl)c(Cl)c2=O)cc1,6.3,-7,2470,-31,36*,18*,12
CCOC(=O)Cc1cc(=O)c2c(=O)n(-c3ccccc3)[nH]c2[nH]1,1.2,-2,22135*,4,-4,-3,7
Cc1ccc(S(=O)(=O)N2CCCC2C(=O)NCc2ccncc2)cc1 (stereo not given),0.4,-2,5777,-11,-9,1,4
COc1ccc(C(CNC(=O)c2ccco2)N2CCCCC2)cc1 (stereo not given),1.9,-1,4975,-19,-2,-1,5
CC(C)C(=O)Nc1c(-c2ccc(Cl)cc2)c(=O)c2ccccc2n1C,1.7,3,3733,-18,-2,4,7
CCC12CN3CC(CC)(CN(C1)C3c1cccnc1)C2=O (stereo not given),6.6,-1,2944,-14,2,1,-13
CN1CCN(c2ccc([N+](=O)[O-])cc2C=NNC(=O)c2ccc(F)cc2)CC1,-1.5,-2,nt,nt,8,12,nt
N#Cc1cn(CC(=O)N2CCCc3ccccc32)c2ccccc12,-6.2,-5,2673,-25,17,6,4
Cc1ccc(C(=O)NNC(=O)c2ccccc2OCc2c(C)noc2C)cc1,3.0,3,5940,-36,3,2,nt
N#Cc1ccccc1N/C=C/C(=O)c1ccc(Cl)cc1,4.1,-18,nt,nt,9,3,3
CCNc1nc(OC)nc(Oc2ccc(C(=O)OC)cc2)n1,0.8,1,3168,-6,nt,nt,0
CC(C)CCNC(=O)C12CN(Cc3ccccc3)CC1C(c1cccc([N+](=O)[O-])c1)=NO2 (stereo not given),-1.1,5,3937,2,11,10,0
COCCN(C(=O)c1cccc(OC)c1)c1nnc(-c2ccncc2)s1,-3.4,8,3740,-16,nt,nt,-15
Cc1ccc(S(=O)(=O)N2CCN(Cc3ccccc3)CC2)c(C)c1N(C)S(=O)(=O)c1ccccc1,-0.2,-10,2105,-6,-2,5,-9
NC(=O)c1ccc(C(=O)NN=C(Cc2ccccc2)c2ccccc2)cc1,-0.3,6,nt,nt,-2,6,nt
O=c1[nH]c2c(s1)C(c1ccco1)C1C3CCC(C3)C1S2 (stereo not given),2.5,5,3141,-11,17,6,0
Cc1sc2ncnc(N3CCN(S(=O)(=O)c4ccc(Br)cc4)CC3)c2c1C,1.8,8,5882,-18,3,4,15
Cc1ccc(NC(=O)CCNC(=O)Cn2ccc3ccccc3c2=O)cc1F,-1.5,2,3553,-2,-9,-2,6
CSc1nc(N)nc(SCCS(=O)(=O)c2ccc(Cl)cc2)c1C#N,1.1,-11,11396,-26,11,6,0
CC(=O)NC(NC(=S)Nc1ccc(C)cc1C)C(Cl)(Cl)Cl (stereo not given),2.1,5,3242,-16,2,5,21
O=C(Nc1ccccc1C(=O)Nc1ccc(Cl)cc1)c1cccnc1,5.3,-12,4101,-16,2,-2,-4
COc1cccc(CC(=O)Nc2cc(S(=O)(=O)N3CCOCC3)ccc2N2CCOCC2)c1,3.0,5,4872,-5,8,-4,-5
CCCCN1C(=O)C(=O)N(CC(=O)N2N=C3/C(=C/c4ccco4)CCCC3C2c2ccco2)C1=O (stereo not given),2.1,-2,4239,-5,-12,1,-8
CCOc1ccccc1C(=O)Nc1nnc(Cc2ccc(OC)c(OC)c2)s1,3.7,1,4432,-19,-3,-4,-6
CCCCOc1ccc(/C=N/NC(=O)c2nnn(-c3nonc3N)c2C)cc1,nt,nt,5597,0,nt,nt,-8
CN1CCN(C(=O)C2CCN(c3ncnc4c3nc3n4CCCCC3)CC2)CC1,0.6,1,5836,9,-8,13,12
COc1ccc(CN2C(=O)c3cccnc3C2=O)cc1S(=O)(=O)NCc1ccc(C)o1,1.2,8,5205,-12,10,2,6
CC(=O)c1c(C)[nH]c(C(=O)CN2C(=O)NC3(CCCCC3)C2=O)c1C,1.3,8,4732,-29,4,-4,nt
Cc1cc(OCC(O)CN(C)C(=O)C(C)Oc2ccccc2)ccc1Cl (stereo not given),18,-4,3848,-28,5,5,-3
CC(=NNC(=O)Cc1cc(=O)[nH][nH]1)c1cccc([N+](=O)[O-])c1,5.6,0,nt,nt,7,2,nt
C=CCn1c(C)nnc1SCC(=O)N1CCN(S(=O)(=O)c2ccccc2)CC1,2.3,2,4490,-7,2,5,0
COc1ccc(-c2cc(C(F)(F)F)n3ncc(C(=O)N(C)Cc4ccccc4)c3n2)cc1,1.8,1,4411,-7,2,-5,5
COc1ccc(CCNC(=O)CCS(=O)(=O)c2ccc3c(c2)oc(=O)n3C)cc1OC,1.8,3,5980,-3,8,15,4
CC(C)(C)NC(=O)CN(CCc1ccccc1)C(=O)c1csnn1,2.1,1,3570,-13,0,3,3
C=CCOC(=O)C1=CC(c2cn(C(C)=O)c3ccccc23)CC(OCc2ccc(CO)cc2)O1 (stereo not given),-0.7&-0.3,4&-25,nt,nt,5&5,2&-2,nt
CC(=O)Nc1ccc(SCC(=O)c2cc(C)n(CC(F)(F)F)c2C)cc1,9.3,0,2412,-23,nt,nt,3
O=C(Nc1ccccn1)c1cc(-n2cnnc2)ccc1Cl,-3.1,7,4892,-31,nt,nt,-2

# Some of the entries so far, bar-delimited:
mol | Sa RN4220 lethal | Sa ugtP lethal | Bead autofluor | PrP UTR inh | Mtb hypoxia rep | Mtb hypoxia rep growth | BJeLR lethal
CN1CCN(C(=O)C2CCN(c3ncnc4c3nc3n4CCCCC3)CC2)CC1 | 0.6 | 1 | 5836 | 9 | -8 | 13 | 12
COc1ccc(CN2C(=O)c3cccnc3C2=O)cc1S(=O)(=O)NCc1ccc(C)o1 | 1.2 | 8 | 5205 | -12 | 10 | 2 | 6
CC(=O)c1c(C)[nH]c(C(=O)CN2C(=O)NC3(CCCCC3)C2=O)c1C | 1.3 | 8 | 4732 | -29 | 4 | -4 | nt
Cc1cc(OCC(O)CN(C)C(=O)C(C)Oc2ccccc2)ccc1Cl (stereo not given) | 18 | -4 | 3848 | -28 | 5 | 5 | -3
CC(=NNC(=O)Cc1cc(=O)[nH][nH]1)c1cccc([N+](=O)[O-])c1 | 5.6 | 0 | nt | nt | 7 | 2 | nt
C=CCn1c(C)nnc1SCC(=O)N1CCN(S(=O)(=O)c2ccccc2)CC1 | 2.3 | 2 | 4490 | -7 | 2 | 5 | 0
COc1ccc(-c2cc(C(F)(F)F)n3ncc(C(=O)N(C)Cc4ccccc4)c3n2)cc1 | 1.8 | 1 | 4411 | -7 | 2 | -5 | 5
COc1ccc(CCNC(=O)CCS(=O)(=O)c2ccc3c(c2)oc(=O)n3C)cc1OC | 1.8 | 3 | 5980 | -3 | 8 | 15 | 4
CC(C)(C)NC(=O)CN(CCc1ccccc1)C(=O)c1csnn1 | 2.1 | 1 | 3570 | -13 | 0 | 3 | 3
C=CCOC(=O)C1=CC(c2cn(C(C)=O)c3ccccc23)CC(OCc2ccc(CO)cc2)O1 (stereo not given) | -0.7&-0.3 | 4&-25 | nt | nt | 5&5 | 2&-2 | nt
CC(=O)Nc1ccc(SCC(=O)c2cc(C)n(CC(F)(F)F)c2C)cc1 | 9.3 | 0 | 2412 | -23 | nt | nt | 3
O=C(Nc1ccccn1)c1cc(-n2cnnc2)ccc1Cl | -3.1 | 7 | 4892 | -31 | nt | nt | -2

# New compounds follow
SMILES,Sa RN4220 lethal,Sa ugtP lethal,Bead autofluor,PrP UTR inh,Mtb hypoxia rep,Mtb hypoxia rep growth,BJeLR lethal
O=C(CSc1ccc2nnc(-c3ccccc3)n2n1)NCc1ccco1,5.6,12,20999*,-3,-3,0,-7
O=C(O)c1ccc(Cn2ccc3ccccc32)o1,0.5,-3,4333,-15,-5,1,-7
CNC(=O)c1ccsc1NC(=O)c1ccc2c(c1)CCCC2,-15,12,4576,-60,1,22,4
Cc1ccc(NC(=O)CN(C)C(=O)COc2cc(F)ccc2[N+](=O)[O-])cc1,6.2,13,4378,-20,4,9,1
CCCNC(=O)N1CCN(S(C)(=O)=O)CC1,2.3,-5,4049,-31,9,16,-3
O=C(CCN1C(=O)/C(=C\c2cccc(Br)c2)SC1=S)NCCCN1CCOCC1,5.0,1,5461,-6,2,-5,85*
COc1ccc(C(=O)O)cc1S(=O)(=O)NC1CCN(Cc2ccccc2)CC1,4.5,8,2965,2,-1,-4,nt
CCc1ccc(C(=O)NC(CCSC)C(=O)O)cc1 (stereo not given),3.8,-1,2178,43,10,2,-6
COc1ccc(-c2ocnc2C(=O)N2CCN(Cc3cccnc3)CC2)cc1,1.3,4,4013,-17,-7,-3,-8
O=C(N/N=C/c1cc(Br)c(O)c(Br)c1)c1cccc(C(F)(F)F)c1,nt,nt,1929,-12,nt,nt,-7
Clc1cccc2c1CCN(Cc1nc(-c3cnccn3)no1)C2,1.1,5,3863,-25,-2,-7,-14
C=CCN(C(=O)CSc1nc2c(sc3ccccc32)c(=O)n1CCN(CC)CC)c1ccccc1,-12,-3,4960,-10,7,28,-35
CN(C)S(=O)(=O)c1ccc2c(c1)nc(CCC(=O)NCCc1ccc(Cl)cc1)n2C,-1.0,6,3592,2,10,7,1
O=C(CC1(O)C(=O)N(Cc2ccccc2)c2ccccc21)c1ccncc1 (stereo not given),-8.8,-9,2336,-18,3,8,-3
O=c1c2c([nH]c3ccccc13)CCCC2,2.7,-2,2740,-10,15,24,4
O=C(CNC(=O)c1cccc(F)c1)N/N=C/c1cccs1,nt,nt,3681,3,nt,nt,-1
O=C1c2cccc(OCc3ccc(F)cc3)c2CCN1Cc1ccccc1,-2.8,33,2614,-5,-3,2,14
COc1cc(C=NNC(=S)Nc2cccc(C(=O)O)c2)cc(OC)c1OC,2.6,4,nt,nt,4,5,nt
O=C(O)C1CC=CCC1C(=O)Nc1ccc(S(=O)(=O)N2CCCc3ccccc32)cc1 (stereo not given),4.7,-1,11235,-19,-4,3,13
O=C1CC2(CCN(C(=O)c3cccc(Cl)c3)CC2)Oc2ccccc21,4.7,6,6485,-3,14,0,7
O=C(Nc1ccc(Cl)c(Cl)c1)c1ccncc1,-3.3,-16,3344,-54,nt,nt,1
CCOC(=O)C=Cc1ccc2c(c1)S(=O)(=O)N(c1cccc(OC)c1)C2CC(=O)OCC (stereo not given),2.5,2,nt,nt,-5,9,nt
Cc1cc(C)nc(S/C=C/C(=O)c2ccccc2F)n1,-1.2,3,6349,-69,11,-13,2
N#Cc1c(NC(=O)CSc2nnnn2C2CCCC2)sc2c1CCCC2,3.6,-7,9753,-13,-4,-1,-3
COc1ccc(CCNS(=O)(=O)c2ccccc2[N+](=O)[O-])cc1OC,7.7,9,3945,-36,19,3,-2
COc1ccc(C(=O)Nc2ccc(C(=O)Nc3cccnc3)cc2)cc1,-3.9,-4,3786,-10,-4,9,0
COc1cccc(CN(C)C(=O)c2ccc3nccnc3c2)c1,2.0,-6,3298,4,nt,nt,3
N#Cc1nc(Cc2cccc3ccccc23)oc1NCCCN1CCOCC1,2.4,-4,7296,-65,3,7,1
O=S(=O)(/N=C(/Nc1ccccc1)c1ccccc1)c1cccs1,6.5,1,2054,-9,5,2,3
O=C(NCc1ccncc1)C1CCN(S(=O)(=O)c2ccccc2)CC1,2.5,3,?,-6,6,0,-4
C/C(=N/NC(=O)CNC(=O)c1ccccn1)c1cccc([N+](=O)[O-])c1,nt,nt,4187,-19,nt,nt,0
CCOC(=O)C(C)Sc1nnc(NC(=O)c2ccc3c(c2)OCO3)s1 (stereo not given),5.9,7,4222,-12,12,5,-1
Cc1ccc(NC(=O)c2cccc(OCc3c(C)noc3C)c2)c(C)c1,9.0,3,6872,8,5,12,1
Cc1sc(NC(=O)CN2CCOCC2)nc1-c1ccc2c(c1)CCN2S(=O)(=O)c1ccccc1,8.1,-2,5324,-2,11,2,9
CCCCOP(=O)(OCCCC)C(Nc1ccc(C(=O)OCC)cc1)c1ccncc1 (stereo not given),4.0,2,3098,-27,0,1,22
